NS1 function inh: inhibitors of influenza NS1 protein function. S. cerevisiae slowed by influenza A NS1, growth recovery by OD600. Potency, µM (titrated, usually from 46.1 µM), without a hit: top-dose activity, positive = more growth. hit rate 0.4% among 270,000; active means well fitted rising curve with a large enough effect; inconclusive means small, poorly fitted or top-dose-only effect; inactive means no such curve, though single readings can be large or run the other way; also: nearly all actives have a fitted effect of over 50% in size
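Read-out: OD600 growth recovery of NS1-expressing budding yeast. Cells grown overnight at 30C in -URA glucose medium, washed, resuspended and diluted 1:100 in 2% galactose assay medium, pH 6.0. Same strain lacking NS1 served as positive control.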
SARS PLpro yeast: SARS-CoV PLP inhibition in yeast | hit rate 0.19% among 330,000 | Potency, µM (doses to about 32.9 µM), inactives show at the top dose activity, positive = growth rescue | AID 485353 | S. cerevisiae expressing SARS-CoV PLpro, growth rescue; control for the full effect not named in the record; active means well fitted rising curve with a large enough effect; inconclusive means small, poorly fitted or top-dose-only effect; inactive means no such curve, though single readings can be large or run the other way; also: 0% is about no effect; nearly all actives have a fitted effect of over 55% in size; growth read by luminescence after 48 h
RE007 growth inh: less growth of the S. pombe RE007 Vpr strain | S. pombe RE007 Vpr strain, BacTiter-Glo ATP luminescence, 24 h; control for the full effect not named in the record | Potency, µM (highest dose often 92.2 µM), without a hit: top-dose activity change, negative = less growth | hit rate 0.21% among 360,000; active = well fitted falling curve with a large enough effect; inconclusive = small, poorly fitted or top-dose-only effect; inactive = no such curve, though single readings can be large or run the other way;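 also: % is scaled to controls: 0 for no effect and ±100 for the full control effect; nearly all actives have a fitted effect of over 50% in size; the assay follows cell death caused by Vpr and the record does not say whether a fall means rescue or toxicity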
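Fission yeast strain RE007, carrying one chromosomally integrated HIV-1 vpr copy, was seeded at OD 0.01 in PMG+AL medium with 23 nL pinned compound. After 24 h at 30 °C and 99% humidity, viability was read by BacTiter-Glo luminescence.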
Cruzain inh noDet: cruzain (T. cruzi) inhibition without detergent; P25779; purified cruzain, Z-FR-AMC fluorescence, no detergent; Potency, µM, for the others: max response, negative = inhibition, usual class: inhibitors; hit rate 2.3% among 200,000;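 also: plate controls were enzyme without inhibitor for no effect and buffer without enzyme for full effect; nearly all actives have a fitted effect of over 40% in size; top concentration of the series not given in the record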
Target sequence (P25779 123-467 limits assumed): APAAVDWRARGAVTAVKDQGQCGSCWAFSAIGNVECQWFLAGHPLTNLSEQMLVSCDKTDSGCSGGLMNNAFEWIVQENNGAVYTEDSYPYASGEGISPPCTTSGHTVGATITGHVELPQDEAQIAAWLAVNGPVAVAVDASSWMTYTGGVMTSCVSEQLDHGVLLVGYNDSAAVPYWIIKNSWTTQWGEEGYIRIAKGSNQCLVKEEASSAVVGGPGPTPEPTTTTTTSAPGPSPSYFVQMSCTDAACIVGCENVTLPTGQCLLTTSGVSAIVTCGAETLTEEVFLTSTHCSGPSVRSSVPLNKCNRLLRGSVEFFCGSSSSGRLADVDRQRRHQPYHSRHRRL
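Detergent-free condition (0.00005% Triton X-100) in acetate buffer pH 5.5 with DTT. 1.5 nM enzyme and compound were pre-mixed 15 min, then 2 uM Z-FR-AMC substrate added; reaction progress from fluorescence change between first and third reads (60 s).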
StopGo reporter: lowers the luciferase signal of an FMDV 2A StopGo reporter | Potency, µM (highest dose often 57.9 µM), for the others: at the highest dose signal change, negative = less light | AID 1159524 | hit rate 1.2% among 410,000 | human cells with a luciferase reporter of 2A StopGo recoding; control for the full effect not named in the record; active = well fitted falling curve with a large enough effect; inconclusive = small, poorly fitted or top-dose-only effect; inactive = no such curve, though single readings can be large or run the other way; tested in HEK293T cells; also: % is scaled to controls: 0 for no effect and ±100 for the full control effect; nearly all actives have a fitted effect of over 45% in size; luciferase light after 4 h
Marburg entry inh: Marburg virus entry inhibition | Potency, µM (series often up to 37.8 µM), without a hit: top-dose activity change, negative = inhibition, actives largely listed as inhibitors | hit rate 1.8% among 300,000 | Marburg virus pseudotyped entry inhibition, cell reporter; control for the full effect not named in the record; about a third of the inactives were read at about 46 µM; active = well fitted inhibition curve with a large enough effect; inconclusive = small, poorly fitted or top-dose-only effect, or effect the other way; inactive = flat fitted curve, though single readings scatter; tested in HEK293 cells; about a fifth of its hits are not listed in these tables; also: % is scaled to controls: 0 for no effect and ±100 for the full control effect; luciferase read-out
LASV entry inh: blocks Lassa virus binding to or entry into cells. AID 540256. hit rate 1.2% among 300,000. Lassa virus pseudotype entry inhibition, cell reporter; control for the full effect not named in the record. Potency, µM (top dose mostly 37.9 µM), without a hit: top-dose activity change, negative = inhibition, hits mostly inhibitors; active means well fitted inhibition curve with a large enough effect; inconclusive means small, poorly fitted or top-dose-only effect, or effect the other way; inactive means flat fitted curve, though single readings scatter; tested in HEK293 cells; also: % is scaled to controls: 0 for no effect and ±100 for the full control effect; nearly all actives have a fitted effect of over 50% in size; luciferase read-out
Cruzain inh Det: blocks cruzain activity in presence of Triton detergent; hit rate 0.43% among 200,000; purified cruzain, Z-FR-AMC fluorescence, 0.01% Triton; AID 1478; P25779; Potency, µM, for inactives: max response, negative = inhibition, most hits filed as inhibitors;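 also: plate controls were neutral wells for no effect and buffer without enzyme for full effect; nearly all actives have a fitted effect of over 40% in size; top concentration of the series not given in the record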
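Z-FR-AMC hydrolysis (2 uM substrate) by cruzain (1.5 nM) monitored kinetically at ex 360/em 450 nm after 15 min room-temperature compound exposure; 0.01% Triton X-100, pH 5.5, 5 mM DTT.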
The depositor's hits bear a star; ? = inconclusive; / = no result given; & = joins results of further samples; [ ] = remark or other dose. Unless noted, calls follow the shape of the dose curve; as a rule, active = well fitted curve in the direction sought with a large enough effect; inconclusive = small, poorly fitted or top-dose-only effect, or another doubt; inactive = no such curve, though single readings can be large; an effect the other way counts as inactive or inconclusive. Potency is read from the fitted curve at half-maximal effect.

smiles | Cruzain inh Det | Cruzain inh noDet | RE007 growth inh | LASV entry inh | SARS PLpro yeast | StopGo reporter | Marburg entry inh | NS1 function inh
Cc1cc(NC(=O)c2cc(C)on2)n(-c2ccccc2)n1 | 2.1% | -1% | -22% | 10% | 8% | 0% | ? | -5%
O=C(O)c1ccc(N/N=C2/CCCc3ccccc32)cc1 | / | / | -12% | / | -2% | 55%[activator] | / | -7%
O=C(CN(Cc1ccc(Cl)cc1)C(=O)c1csnn1)NCc1ccccc1 | / | / | -8% | ? | -2% | -12% | 12%[46.1 µM] | -1%
Nc1cc(C(=O)OCC(=O)N2CCCC2=O)ccc1Cl | / | / | ? | 8% | 1% | 34%[activator] | 14%[46.1 µM] | /
Cc1cc(C)n(CC2CC(=O)N(c3ccc(Cl)cc3)C2=O)n1 (stereo unspecified) | / | / | -6% | 3% | -1% | ? | 16%[46.1 µM] | -1%
CCOC(Cn1c(-c2ccc(OC)cc2)nc2ccccc21)OCC | 1.7% | 1% | 3% | 0% | 10% | 16% | ? | -9%
Cc1ccc(-n2nc(C)c3c(C(=O)NCCc4ccc(S(N)(=O)=O)cc4)cc(C)nc32)cc1 | -8.9% | ? | / | 23%[46.1 µM] | / | -14% | / | /
CC1CCCC(C)N1c1nnc(NC(=O)c2cc(-c3ccc(Br)cc3)on2)s1 (stereo unspecified) | -6.8% | ? | 3% | / | -4% | ? | / | -2%
Cc1cc(C)cc(OCC(=O)Nc2ccc(N3CCN(C(=O)c4ccco4)CC3)cc2)c1 | -7.4% | 5% | ? | -10% | -5% | / | -26% | 13%
Cc1cc(C)n(CC(=O)NNC(=O)c2ccc(OC(F)(F)F)cc2)n1 | / | / | 2% | -28%[46.1 µM] | -16% | 8% | 1%[46.1 µM] | /
NS(=O)(=O)c1ccc(NC(=S)N2CCN(c3ccc(Cl)c(Cl)c3)CC2)cc1 | -0.1% | ? | -15% | ? | 4% | ? | ? | 7%
O=[N+]([O-])c1ccc(N(c2ccccc2)c2ccccc2)cc1 | -0.2% | ? | 2% | -2% | -27% | ? | -8% | ?
Cc1ccc(-c2nnc(SCc3nc(N)nc(Nc4ccccc4C)n3)n2N)cc1 | 4.5% | 6% | 5% | 8% | -12% | -9% | -1% | -3%
Cc1ccc(C(=O)N2CCN(c3cccc(Cl)c3)CC2)cc1-n1c(C)nc2cccnc21 | -9.5% | ? | / | -19%[46.1 µM] | / | ? | / | /
COC(=O)c1ccccc1-c1c2ccc(=N)cc-2oc2cc(N)ccc12 | / | / | -15% | 7.9µM* | -1% | 0% | ? | /
CCCCC[n+]1ccn(C2=C([O-])c3ccccc3C(=O)/C2=N\S(=O)(=O)c2ccccc2)c1 | 0.6% | 11% | 0% | ? | 0% | ? | 22µM* | 11%
CC(=O)Cc1ccccc1OCC(=O)O | 11% | 11% | 10% | 22% | 4% | 2% | 5% | 22%
COc1cccc(C(C)NC(=O)Nc2ccccc2Cl)c1 (stereo unspecified) | / | / | -8% | ? | 0% | -13% | -25% | ?
Cc1ccc2nc(-c3ccccn3)c(NC3CCCC3)n2c1 | / | / | ? | ? | 0% | -6% | ? | 1%
O=C(NCc1ccc2c(c1)OCO2)c1ccc2c(c1)N(Cc1c(F)cccc1Cl)C(=O)CS2 | -1.0% | ? | 0% | ? | 11% | -19% | ? | ?
Cc1ccc(S(=O)(=O)/C(=C/Cl)NC(=O)c2ccccc2)cc1 | 22µM* | 25µM* | 0% | 7.3µM* | -3% | 14µM* | 7.1µM* | 6%
CC(C)(C)C(=O)Nc1nnc(SCC(=O)NCc2ccco2)s1 | -2.2% | -1% | 6% | 2% | -19% | 4% | -15% | -3%
CCc1c(C(=O)NC2CCCc3ccccc32)[nH]c(C)c1C(C)=O (stereo unspecified) | / | / | -7% | / | -1% | 22% | / | -5%
CCN(c1ccccc1)S(=O)(=O)c1ccc(OC)c(NC(=O)CN(C)C)c1 | / | / | 3% | / | -2% | -5% | / | 3%
O=C(O)c1cc2cc(Oc3ccccc3)ccc2[nH]1 | / | / | -16% | -5% | 4% | -8% | -28% | -67%
CCOC(=O)c1ccc(NC(=O)c2nc(SCc3ccccc3F)ncc2Cl)cc1 | -0.6% | -20% | / | 5%[46.1 µM] | / | -17% | 7%[46.1 µM] | /
Cc1c(CC(=O)NCCC(=O)O)c(=O)oc2cc3oc4c(c3cc12)CCCC4 | / | / | 2% | / | 1% | 3% | / | ?
CCOC(=O)c1sc(NCC2CCCO2)nc1C (stereo unspecified) | 1.0% | 6% | 2% | 14% | -3% | 33%[activator] | 26%[46.1 µM] | 1%
CCOc1cc(-c2c(C#N)c(N)nc3c2CCCC3)ccc1O | -6.5% | 16% | 3% | -16% | 7% | ? | 5% | 0%
COc1ccc(N2CCN(S(=O)(=O)c3c(C(=O)N4CCOCC4)c(C)n(C)c3C)CC2)cc1 | / | / | -4% | / | 0% | 1% | / | 6%
CC(C)C[C@H](NC(=O)c1nc[nH]c1C(=O)N1CCC(C)CC1)C(=O)OC(C)(C)C | / | / | -8% | / | -2% | -8% | / | -9%
CCOP(=O)(OCC)C(C)(C)NC(=O)Nc1ccc(Cl)c(Cl)c1 | / | / | 2% | ? | 0% | ? | ? | 2%
Cn1cc(S(=O)(=O)N2CCOCC2)cc1C(=O)NCc1ccccc1Cl | / | / | -1% | / | -14% | 0% | / | -24%
C=CCNC(=O)NC(=O)COC(=O)/C(C#N)=C/c1ccc(OC)cc1 | / | / | 4% | -15% | 4% | -8% | -24% | /
Cc1ccccc1Cn1cc(/C=N/n2cnnc2)c2ccccc21 | -17% | -14% | 6% | ? | -6% | -24% | ? | 2%
Nn1cnnc1N/N=C/c1ccccc1C(F)(F)F | / | / | 1% | / | -1% | -24% | / | -3%
O=S(=O)(c1ccc(F)c(Cl)c1)N1CCN(C/C=C/c2ccccc2)CC1 | / | / | -3% | -4% | 4% | 10% | 26% | /
COc1cc(C(=O)Nc2nccs2)cc(OC)c1OC | -0.3% | -5% | -3% | -2% | 2% | 1% | -4%&-4% | 3%
Cc1cnc2c(c1)C(=O)c1ccccc1-2 | / | / | 3% | / | -3% | 29% | / | -5%
COc1ccc(C(=O)N/N=C(\C)CC(=O)Nc2ccc3ccccc3c2)c(OC)c1 | / | / | 0% | 13% | -1% | -1% | -2% | 4%
CC(=O)N1CCCc2ccc(NS(=O)(=O)c3ccc(C)c(C)c3)cc21 | -1.7% | -1% | 3% | ? | 6% | -7%&24% | -17%&-17%[46.1 µM] | 0%
COc1cc(CNCCN(C)C)ccc1OCc1c(F)cccc1Cl | / | / | 1% | ? | -1% | -5% | ? | 3%
CCc1ccc(NC(=O)CSc2nc3ccsc3c(=O)n2CCCCCC(=O)O)cc1 | / | / | -2% | 24% | 1% | 1% | 21%[46.1 µM] | /
O=C(Nc1cc(S(=O)(=O)Nc2ccccc2F)ccc1Cl)c1ccc(F)cc1F | / | / | 14% | -15%[46.1 µM] | 13% | 35%[activator] | -3%[46.1 µM] | /
CC(C)(C)c1cc(C(F)(F)F)c(C#N)c(=O)[nH]1 | -17% | -7% | 22% | 15% | 11% | -22% | 9% | 20%
COc1ccc(CNC(=O)N2CCN(c3ccc(F)cc3)CC2)cc1Cl | / | / | -17% | 0%[46.1 µM] | -4% | -26% | -21%[46.1 µM] | /
CCn1cc(S(=O)(=O)N2CCN(Cc3cccc(Cl)c3)CC2)cn1 | / | / | -22% | -23% | -1% | -9% | ? | 3%
Cc1ccc(O)c(CCc2ccccc2)n1 | -0.2% | -4% | -1% | 12% | 0% | 29% | 0% | 11%
CCn1c(=O)c2c3c(sc2n(C)c1=O)CCC3 | 0.2% | -1% | 11% | 2% | -8% | -21% | 1% | -25%
COc1cccc(C(c2sc3ncnn3c2O)N2CC(C)OC(C)C2)c1 (stereo unspecified) | -0.6% | -4% | -14% | / | 2% | -16% | / | ?

More records follow.
smiles | Cruzain inh Det | Cruzain inh noDet | RE007 growth inh | LASV entry inh | SARS PLpro yeast | StopGo reporter | Marburg entry inh | NS1 function inh
CC1(C(=O)OCC(=O)Nc2ccc(C(N)=O)cc2)CC1(Cl)Cl (stereo unspecified) | / | / | 5% | -1% | 3% | 1% | -17%[46.1 µM] | 5%
COc1ncnc2c1sc1nc(-c3ccccc3)c3c(c12)CCCC3 | 0.2% | -10% | -2% | / | -22% | -23% | / | -5%
COc1ccc2[nH]c(=O)c(CN(CC3CCCO3)C(=O)Nc3ccccc3)cc2c1 (stereo unspecified) | -3.8% | -2% | -12% | -11% | -2% | ? | -9% | -2%
CCOC(=O)c1[nH]ncc1CN1CCCC(C(=O)c2cccc3ccccc23)C1 (stereo unspecified) | / | / | 13% | / | 1% | -19% | / | 4%
O=C(Nc1ccccc1Cl)c1cccc(NS(=O)(=O)c2ccccc2)c1 | -5.5% | 1% | / | / | -11% | / | / | -4%
O=C(Nc1ccc(F)c(Cl)c1)N1CCCC1 | / | / | -27% | 5% | -8% | -2% | 0%[46.1 µM] | 0%
O=C(COc1ccc(Cl)cc1)NCCc1csc(-c2ccc(F)cc2)n1 | -11% | 4% | / | 17%[46.1 µM] | / | -5% | / | /
Cc1ccc(S(=O)(=O)NCCC(=O)NCC(=O)Nc2c(C)cccc2C)cc1C | / | / | 12% | 11% | -2% | 10% | -1%[46.1 µM] | /

Two entries drawn at random from those above:
smiles | Cruzain inh Det | Cruzain inh noDet | RE007 growth inh | LASV entry inh | SARS PLpro yeast | StopGo reporter | Marburg entry inh | NS1 function inh
O=C(COc1ccc(Cl)cc1)NCCc1csc(-c2ccc(F)cc2)n1 | -11% | 4% | / | 17%[46.1 µM] | / | -5% | / | /
O=C(Nc1ccccc1Cl)c1cccc(NS(=O)(=O)c2ccccc2)c1 | -5.5% | 1% | / | / | -11% | / | / | -4%

A few values from the list.
CC1(C(=O)OCC(=O)Nc2ccc(C(N)=O)cc2)CC1(Cl)Cl (stereo unspecified) @ StopGo reporter: 1%
COc1ncnc2c1sc1nc(-c3ccccc3)c3c(c12)CCCC3 @ NS1 function inh: -5%

Assay outcomes: PubChem, National Center for Advancing Translational Sciences (NCATS)
